# High-throughput results from PubChem.
# VDR inh: inhibitors of human vitamin D receptor. P11473. VDR-SRC2-3 peptide fluorescence polarization, 2 h. Potency, µM, for the others: max response, negative = inhibition, most hits filed as inhibitors. hit rate 0.93% among 400,000. AID 504847; active = well fitted inhibition curve with a large enough effect; inconclusive = small, poorly fitted or top-dose-only effect, or another doubt; inactive = no such curve, though single readings can be large or run the other way; also: series mostly up to about 120 µM
# Target sequence (P11473 whole entry, looked up): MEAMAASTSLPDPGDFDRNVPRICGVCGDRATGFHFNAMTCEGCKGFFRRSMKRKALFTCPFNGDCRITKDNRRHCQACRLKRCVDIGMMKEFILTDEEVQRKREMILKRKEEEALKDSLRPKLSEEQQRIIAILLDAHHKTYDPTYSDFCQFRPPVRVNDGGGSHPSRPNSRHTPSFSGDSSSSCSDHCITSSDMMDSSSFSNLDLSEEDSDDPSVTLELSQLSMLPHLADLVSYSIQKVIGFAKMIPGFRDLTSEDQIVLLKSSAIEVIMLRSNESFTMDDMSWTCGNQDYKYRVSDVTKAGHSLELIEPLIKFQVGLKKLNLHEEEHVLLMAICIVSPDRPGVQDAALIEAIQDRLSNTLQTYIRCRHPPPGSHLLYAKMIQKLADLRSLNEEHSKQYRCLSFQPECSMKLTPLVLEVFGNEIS
#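 After 23 nl compound addition and a short centrifugation, plates sat for 2 hours at ambient temperature; polarization of fluorescence then indicated loss of VDR binding to peptide SRC2-3.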
# * hit, by the source's call; ? = inconclusive. % is scaled to controls: 0 for no effect and ±100 for the full control effect; potency is read from the fitted curve at half-maximal effect. The list is partial (hit frequency here may not be typical).
VDR inh	SMILES
0%	COc1ccc(Oc2nc3c(c(=O)n(C)c(=O)n3C)n2Cc2cccc(OC)c2)cc1
9%	COc1ccc2c(C)cc(Sc3nnnn3-c3ccccc3)nc2c1
-9%	CCC1=C2CC[C@H]3C(=O)N(C)C(=O)[C@H]3[C@H]2[C@@]2(Cc3ccccc3)C(=NCC(=O)OC)OC(=O)N2C1=O
-14%	CC1(C)CNc2cc([N+](=O)[O-])ccc2S1
-12%	CC(=O)N(CCC(c1ccco1)C(C)C)Cc1ccc(OC(C)C)cc1 (stereo not given)
6%	CCC(=O)N1c2ccccc2CC1C(=O)N1CCN(c2cccc(Cl)c2)CC1 (stereo not given)
45µM*	CC(=O)NCCNc1ncnc2ccc(-c3cccc(NS(C)(=O)=O)c3)cc12
5%	Cc1ccc(OCCC(=O)OCC(=O)NC(=O)NC2CCCCC2)cc1
2%	Cc1ccc(NS(=O)(=O)c2ccc(C(=O)N3CCCN(C)CC3)cc2)cc1
-13%	Cn1cc([N+](=O)[O-])c(C(=O)NCc2cc3ccccc3[nH]2)n1
-6%	NC(=O)NC(=O)CSc1nc2cc([N+](=O)[O-])ccc2n1-c1cccc(C(F)(F)F)c1
3%	COc1ccc(NC(=O)c2cccc([N+](=O)[O-])c2)cc1
-24%	Cc1ccc2c(c1C)C(=O)C(=O)N2
-10%	COc1ccc(C(=O)N/C(=C/c2cccs2)C(=O)NCCCn2ccnc2)cc1OC
-12%	OCC1OCOC2C(CO)OCOC12 (stereo not given)
?	N#CC(C#N)=C1C=CC=CN1/C(=C\c1ccco1)C(=O)c1ccc(-c2ccccc2)cc1
-4%	Cc1ccc(S(=O)(=O)NC(=O)c2cccc(C)c2)cc1
0%	CCOc1ccc(-c2nonc2NC(=O)c2oc3c(C)c(C)ccc3c2C)cc1OCC
-9%	Cc1cc(C)cc(NC(=O)Cn2nnc(C(=O)Nc3cc(C)cc(C)c3)c2N)c1
-11%	CCCN(CC(=O)Nc1ccccc1C)C(=O)c1ccc2c(c1)S(=O)(=O)N=C1CCCCCN12
21%	Nc1ccc(N2CCOCC2)c(S(=O)(=O)Nc2ccccc2Cl)c1
-3%	Cc1ccccc1NC1=C(Cl)C(=O)OC1OC(C)C (stereo not given)
3%	Cc1nn2c(-c3ccncc3)ccnc2c1Cl
9%	CCCn1nnnc1NC(=O)c1ccc(C)cc1Cl
17%	OCCCCNCc1ccc(OCc2ccc(Cl)cc2Cl)cc1
-2%	O=C(CC1Oc2ccccc2NC1=O)NCCCN1CCCC1=O (stereo not given)
-10%	CC(=O)c1c(C)[nH]c(C(=O)NCCc2ccc(Cl)cc2)c1C
11%	Cc1ccc(C)c(NC(=O)CCN2CC(C)OC(C)C2)c1 (stereo not given)
-16%	COc1cc(C(C(=O)NC2CCCC2)N(Cc2ccccc2)C(=O)c2snc(C(N)=O)c2N)ccc1O (stereo not given)
0%	COc1ccccc1CNC(=O)COC(=O)c1ccccc1SCC(=O)N1CCCC1
-11%	Cc1nn(-c2ccccc2)c(C)c1/C=N/NC(=O)c1cnccn1
13%	Cc1ccc(NC(=O)Cn2cc(S(=O)(=O)N3CCCC3)c(S(=O)(=O)N3CCCC3)c2)cc1C
-4%	Cc1ccc(-c2[nH]c3ccccc3c2C(C[N+](=O)[O-])c2ccco2)cc1 (stereo not given)
0%	CCOc1cc(CNC(=O)c2ccc3nc(CCc4ccccc4)oc3c2)ccc1OC
-27%	O=C(CSCc1ccccc1)N/N=C/c1cc2c(cc1Br)OCO2
7%	COc1ccc(N2CCN(c3ccc(N)cc3C#N)CC2)cc1
-13%	COc1cc(C(=O)NCCSc2c(C)[nH]c3ccccc23)cc(OC)c1OC
12%	CCOC(=O)C1CCN(S(=O)(=O)c2c(C)n[nH]c2C)CC1
-14%	CC(C)c1ccc(N(CC(=O)NC(C)(C)C)C(=O)CCC(=O)Nc2nccs2)cc1
-3%	CC(C)(C)c1ccc(OCC(=O)N/N=C/c2ccsc2)cc1
-6%	O=C(Cn1c(=O)oc2cc(S(=O)(=O)N3CCc4ccccc43)ccc21)NC1CCCC1
-19%	COC(C[C@H](O)[C@@H](C)[C@@H](O)COCc1ccccc1)OC
-5%	CC(=O)c1cccc(NC(=O)CSCc2ccccc2)c1
-8%	Cc1cc(N2C(=O)C(O)=C(C(=O)c3ccco3)C2c2ccc(Cl)cc2)no1 (stereo not given)
0%	CCOc1ccc(CNC(=O)c2ccc(NC(=O)N3CCCCc4ccccc43)cc2)cc1
-4%	CCC(O)(c1ccc(OC)cc1)C(CN1CCOCC1)c1ccccc1 (stereo not given)
4%	CC(C)CC(OC(=O)c1ccco1)C(=O)NC1CCCC1 (stereo not given)
-3%	COC(=O)CN1C(=O)Nc2ccc(Br)cc2C1c1ccccc1Cl (stereo not given)
0%	O=C(NN=C1CCCC1)c1cccc(Br)c1
-12%	CC1(NC(=O)c2ccccc2)CCN(CCCc2ccccc2)C1=O (stereo not given)
-17%	O=C(Cc1ccc(S(=O)(=O)N2CCOCC2)s1)NC1CCCCC1
-3%	CC1CCc2sc(C(=O)NCC(C)(C)N3CCOCC3)cc2C1 (stereo not given)
-14%	Cc1ccc(S(=O)(=O)N2CCC(=O)N(C(COCc3cccc(C)c3)C(C)C)CC2)cc1 (stereo not given)
8%	CCOC(=O)Cn1cc(C(=O)C(C)(C)C)c2ccccc21
0%	CCCCCn1c2nc3ccccc3nc2c2c(=O)n(CC(C)C)cnc21
4%	Cc1onc(-c2ccccc2)c1C(=O)Nc1ccc2c(C)cc(=O)oc2c1
-2%	COc1ccc(NC(=O)CSc2nncn2C)cc1OC
-2%	Cc1ccc(C(=O)n2nc(-n3cccc3)c3c(C)cc(C)nc32)cc1
-27%	Nc1cccc2nc3ccccc3cc12
21%	Cc1ccccc1NC(=O)Nc1ccccc1C(=O)NCc1ccccc1

# New compounds follow:
VDR inh	SMILES
-3%	Cc1ccc(SCCNC(=O)c2ccc([N+](=O)[O-])c(C)c2)cc1
-11%	CC[n+]1c(-c2ccc(C)cc2)csc1Nc1c(C)n(C)n(-c2ccccc2)c1=O
8%	COc1ccc(NC(=O)CCCc2c[nH]c3ccccc23)cc1OC
5%	O=C1NCCN1Cc1ccccc1F
-4%	CC12CCC(C(=O)Nc3cccnc3)(CC1=O)C2(C)C (stereo not given)
-8%	CN(C)/C=C(/C(=O)c1ccc(Cl)cc1)S(=O)(=O)c1ccccc1
0%	Cc1cc(C)cc(C(=O)Nc2nc3ccccc3[nH]2)c1
1%	COC(=O)c1cn(Cc2cccnc2)c(=O)c2ccccc12
8%	Cc1cc(NC(=O)c2ccc([N+](=O)[O-])cc2)n(C)n1
15%	CCCCSCCCNC(=O)c1ccc(CS(=O)(=O)c2ccccc2OC)o1
-16%	CCC(C)Sc1ccc([C@H]2N[C@@](Cc3ccccc3)(C(=O)OC)[C@H]3C(=O)N(C)C(=O)[C@@H]23)cc1 (stereo not given in full)
-7%	CC(=O)OCC#CCSc1nc2ccccc2n1C
0%	C/C(=N\NC(=O)C(O)c1ccccc1)c1ccc(Br)s1 (stereo not given)
-4%	CCC1(c2ccccc2)NC(=O)N(CC(=O)N(C)CC(=O)Nc2cccc(OC)c2)C1=O (stereo not given)
-7%	Fc1ccc(C2CC(c3ccccc3)Nc3ncnn32)cc1 (stereo not given)
?	CCOC(=O)c1c(NC(=O)CN2C(=O)NC3(CCC(C)CC3)C2=O)sc(C)c1-c1ccc(C)cc1 (stereo not given)
-14%	COc1ccc(CCNC(=O)Cn2c(=O)cnc3ccccc32)cc1
8%	CCOC(=O)c1c(CSc2nc(C)cc(C)c2C#N)n(C)c2cc(Br)c(OC(C)=O)cc12
14%	Cc1ccc(C(=O)COC(=O)c2ccco2)cc1C
-13%	CCC(C(=O)OCC(=O)NC(=O)c1ccccc1)c1ccccc1 (stereo not given)
-7%	Cc1cc2c(cc1S(=O)(=O)N(C)C1CCCCC1)OCC(=O)N2
-18%	CC(C(=O)N1CCOCCOCCOCCOCCOCC1)N1C(=O)c2ccccc2C1=O (stereo not given)
12%	O=C(CSc1nnc(NC(=O)c2ccccc2F)s1)NCc1ccc(F)cc1
-15%	Cc1ccc(NC(=S)N(CCCN2CCCC2)Cc2cccn2Cc2ccc(Cl)cc2)cc1
-7%	CC1CCN(S(=O)(=O)c2ccc3nc(-c4ccccn4)cc(C(=O)NCCN(C)Cc4ccccc4)c3c2)CC1
-17%	Cc1ccc(OCC(=O)Oc2ccc(C(C)C)cc2)cc1
-13%	COCCC(=O)N1CCC(Oc2ccc(C(=O)N3CCCCC3CCO)cc2)CC1 (stereo not given)
6%	COc1cccc(CNC(=O)CCC2CCCN(Cc3cc4ccccc4o3)C2)c1 (stereo not given)
-9%	O=C(CSC1CC(=O)N(c2ccc(C(=O)O)cc2)C1=O)Nc1ccc(Cl)cc1 (stereo not given)
-2%	Cc1onc(-c2ccccc2Cl)c1C(=O)OCc1nnc(-c2ccccc2)o1

# Some of these compounds in order of the VDR inh value, descending:
VDR inh	SMILES
14%	Cc1ccc(C(=O)COC(=O)c2ccco2)cc1C
8%	COc1ccc(NC(=O)CCCc2c[nH]c3ccccc23)cc1OC
0%	Cc1cc(C)cc(C(=O)Nc2nc3ccccc3[nH]2)c1
-7%	CC1CCN(S(=O)(=O)c2ccc3nc(-c4ccccn4)cc(C(=O)NCCN(C)Cc4ccccc4)c3c2)CC1
-8%	CN(C)/C=C(/C(=O)c1ccc(Cl)cc1)S(=O)(=O)c1ccccc1
-17%	Cc1ccc(OCC(=O)Oc2ccc(C(C)C)cc2)cc1

# New compounds follow:
VDR inh	SMILES
3%	CCC(=O)Nc1nc2c(c(=O)[nH]1)CCCC2
-2%	O=C(Oc1ccc2c(c1)CCC2)N1CCOCC1
-1%	CCC1=C(c2ccc(OC)cc2)CCC(C(=O)O)C1C (stereo not given)
0%	O=C(c1cccs1)N1CCC(c2nc3c(nnn3Cc3c(Cl)cccc3Cl)c(=O)[nH]2)CC1
-20%	CN(C)c1ccc([C@@H]2[C@@H]([N+](=O)[O-])[C@H]3C=Cc4ccccc4N3[C@H]2C(=O)c2ccc(Cl)cc2)cc1
5%	O=C(CN1CC(=O)Oc2ccccc21)OCC(=O)c1cccc(Br)c1
-1%	COc1cc(OC)cc(C(=O)NNC(=O)CNC(=O)c2cccs2)c1
-4%	CC(C(=O)NC(=O)NC1CCCCC1)N1CCN(c2ccc(O)cc2)CC1 (stereo not given)
-16%	CN1CCN(c2c([N+](=O)[O-])cnc3ccccc23)CC1
-11%	COc1cc2c(cc1OC)C(C(=O)Nc1ccc3c(c1)OCCO3)C1c3ccccc3CCN1C2=O (stereo not given)
6%	O=C(CSc1nccn1-c1ccc(F)cc1)Nc1ccc2c(c1)OCO2
2%	CC(C)(CO)Nc1nc(Nc2ccccc2)nc(Nc2ccccc2)n1
-15%	CC(=O)c1c(C)[nH]c(C(=O)OCc2ccc(F)cc2Cl)c1C
-18%	O=C(Nc1ccc2c(c1)CCCN2C(=O)c1ccco1)c1cc([N+](=O)[O-])ccc1Cl
-7%	O=C(Nc1ccccc1N1CCOCC1)c1cccnc1Cl
-2%	O=C(Oc1ccc2c(c1)OCO2)c1ccncc1
10%	Cc1ccccc1OCCN1C(=O)NC2(CCc3ccccc32)C1=O (stereo not given)
?	C=C1CCN(C(Cc2ccccc2)C(=O)O)S(=O)(=O)c2ccccc21 (stereo not given)
-10%	Cc1csc2ncnc(N3CCN(S(=O)(=O)c4cccc(C(F)(F)F)c4)CC3)c12
-11%	CC1C(=O)C(C)C(c2cc(Br)ccc2O)NC1c1cc(Br)ccc1O (stereo not given)
-12%	CCN(CC)c1ccc(NC(=O)C2CC(=O)N(Cc3ccccc3)C2)cc1 (stereo not given)
5%	Cc1ccc(C(=O)CN2C(=O)NC3(CCc4ccccc43)C2=O)c(C)c1 (stereo not given)
-14%	CCOc1cccc2sc(N3CCN(C(=O)c4ccc5ncsc5c4)CC3)nc12
-9%	Cc1ccc(OCc2cc(C(=O)N(C)CC3CCOCC3)no2)cc1C
2%	Cc1ccc(Nc2nnc(SCC(=O)Nc3cc(C(=O)O)ccc3C)s2)c(C)c1
-12%	Cc1cccc(C(=O)N[C@H](C(=O)Nc2nccs2)C(C)C)c1
-8%	CCOc1ccc(Cc2nn[nH]n2)cc1
15%	CN(NC(=O)c1ccccc1F)c1nc(C(F)(F)F)nc2ccccc12
7%	COC(=O)[C@H](Cc1ccccc1)NC(=O)N1CCCCCC1
8%	COc1ccc(N2CCN(S(=O)(=O)CCNC(=O)Cc3ccc([N+](=O)[O-])cc3)CC2)cc1
-1%	CCOC(=O)N1CCC(N2CCN(S(=O)(=O)c3ccc4ccccc4c3)CC2)CC1

# Sorted by SMILES length (highest first): part of the list above.
VDR inh	SMILES
-18%	O=C(Nc1ccc2c(c1)CCCN2C(=O)c1ccco1)c1cc([N+](=O)[O-])ccc1Cl
-10%	Cc1csc2ncnc(N3CCN(S(=O)(=O)c4cccc(C(F)(F)F)c4)CC3)c12
-15%	CC(=O)c1c(C)[nH]c(C(=O)OCc2ccc(F)cc2Cl)c1C

# Given as labelled records: entries from further up
CC(C)c1ccc(N(CC(=O)NC(C)(C)C)C(=O)CCC(=O)Nc2nccs2)cc1
  VDR inh: -14%
CC(C)(C)c1ccc(OCC(=O)N/N=C/c2ccsc2)cc1
  VDR inh: -3%
O=C(Cn1c(=O)oc2cc(S(=O)(=O)N3CCc4ccccc43)ccc21)NC1CCCC1
  VDR inh: -6%
COC(C[C@H](O)[C@@H](C)[C@@H](O)COCc1ccccc1)OC
  VDR inh: -19%
